High-throughput results from PubChem.
VACV Venus inh – vaccinia inhibition (Venus reporter); Vaccinia virus Venus reporter expression, fluorescence; Potency, µM (highest dose often 36.5 µM), inactives show at the top dose activity change, negative = inhibition, hits mostly inhibitors; 330,000 compounds, 0.46% hits; active means well fitted inhibition curve with a large enough effect; inconclusive means small, poorly fitted or top-dose-only effect; inactive means no such curve, though single readings can be large or run the other way; tested in A549 cells; also: nearly all actives have a fitted effect of over 30% in size; inactives centre near -10
VACV mCherry inh – vaccinia inhibition (mCherry reporter); Vaccinia virus mCherry reporter infection, fluorescence; about a quarter of the inactives have no number; Potency, µM (titrated, usually from 36.5 µM), for inactives: at the top dose activity change, negative = inhibition, most hits filed as inhibitors; 310,000 compounds, 0.63% hits; AID 720579; active = well fitted inhibition curve with a large enough effect; inconclusive = small, poorly fitted or top-dose-only effect; inactive = no such curve, though single readings can be large or run the other way; tested in A549 cells; also: nearly all actives have a fitted effect of over 35% in size; inactives centre near -10
The depositor's hits bear a star; i = inactive; ? = inconclusive; / = no result given; & = joins results of further samples; [ ] = remark or other dose. % is scaled to controls: 0 for no effect and ±100 for the full control effect; potency is read from the fitted curve at half-maximal effect.

Value order: VACV Venus inh, VACV mCherry inh
COc1ccc(C(=O)Nc2ccc(S(=O)(=O)N3CCCCC3C)cc2)c(OC)c1OC (stereo not given)
    -29.5%, -13.6%
COC(=O)c1c(C)nc2c(c(SC)nn2-c2ccccc2)c1N
    -22.1%, /
O=C(Nc1ccc(F)cc1F)c1ccc(COc2c(F)c(F)cc(F)c2F)o1
    -15.9%, -12.7%
N#Cc1c(Cl)cccc1N1CCSCC1
    -2.0%, i
COc1ccc(C(NC(=O)c2c(F)c(F)c(F)c(F)c2F)c2ccccc2)cc1 (stereo not given)
    ?, ?
O=C(NCc1cccnc1)c1ccc(CN2CCc3ccccc3C2)cc1
    -16.6%, -22.4%
COc1ccc(C(=O)OCC(=O)Nc2ccc([N+](=O)[O-])cc2OC)c(O)c1
    -7.3%, -2.9%
CC1(C)Cc2cccc(OCC(=O)OCC(=O)NCc3ccccc3)c2O1
    -7.9%, i
O=C(NCCN1CCOCC1)c1ccc(CS(=O)(=O)c2ccc(Br)cc2)o1
    -3.9%, -3.1%
Cc1ccc2cccc(S(=O)(=O)n3nc(C)cc3C)c2n1
    -11.6%, i
Cc1ccccc1N(C(=O)c1ccccn1)C(C(=O)NCc1ccccc1)c1cccnc1 (stereo not given)
    -12.9%, i
NCCCC[C@@H]1NC(=O)[C@H](CCC(=O)O)NC(=O)c2cc([N+](=O)[O-])cc(I)c2NCC[C@@H](C(N)=O)NC1=O
    -0.7%, i
COc1ccc(OC2C(=O)N(c3cc(C)ccc3C)C2c2ccc(OC)c(OC)c2)cc1 (stereo not given)
    -10.5%, -15.4%
CC(C)NC(=O)CC(=O)NN=C1CCCCC1
    -15.2%, -6.5%
COC(=O)C1CCC(=O)N1C(c1ccc(OC)cc1)c1cc(OC)c(OC)c(OC)c1 (stereo not given)
    ?, ?
CCOC(=O)CCCCCC(=O)Nc1ccc2c(c1)C(=O)N([C@H](C)CO)C[C@@H](C)[C@@H](CN(C)C(=O)CCC(F)(F)F)OCCCC[C@H](C)O2
    -10.7%, -12.5%
O=C(NCc1ccc(F)cc1)C(c1ccc(Cl)cc1)N(C(=O)c1csnn1)C1CC1 (stereo not given)
    -5.6%, ?
COc1cc(NC(=O)COC(=O)/C=C/c2ccccc2Cl)cc(OC)c1
    -1.0%, -17.4%
Cc1ccc(C)c(NC(=O)N2CCN3CCCCC3C2)c1 (stereo not given)
    -7.3%, -12.8%
CC#CCN(CC#CC)S(=O)(=O)c1ccc(-n2cnnn2)c(OC)c1
    -12.3%, -18.6%
CCCCCCC1C(C#N)=C(N)OC2=C1C(=O)CCC2 (stereo not given)
    -3.7%, -13.9%
Cc1nc2ccc(S(=O)(=O)NCC(=O)N3CCCCC3)cc2s1
    0.7%, -3.2%
O=C(Nc1cccc(Cl)c1)Nc1cc(S(=O)(=O)N2CCCCC2)ccc1Cl
    ?, -24.8%
COc1cccc(C(c2nnnn2C2CCCCC2)N2CCC3(CC2)C(=O)NCN3c2ccccc2)c1OC (stereo not given)
    -19.7%, -6.9%
Fc1cccc(NC(=S)NCCc2ccccc2)c1
    -11.5%, -5.6%
CCOC(=O)NC(=S)Nc1cccc(C)n1
    -10.0%, i
CC1CCN(c2nn3c(=O)c(C(=O)NCc4ccc(Cl)cc4)cnc3s2)CC1
    -7.1%, -5.3%
COc1ccc(OC)c(NC(=O)Cn2c(C)nc3ccccc3c2=O)c1
    -3.4%, i
Cc1ccc(S(=O)(=O)N2CCOCC2)cc1NC(=O)CNCc1ccccc1Cl
    -10.6%, -11.9%
CCc1ccc(Nc2ncnc3nc[nH]c23)cc1
    0.0%, -8.9%
COc1cc(C(C)=O)ccc1Oc1ncnc2c1cnn2-c1cccc(Cl)c1
    -0.8%, i
CCCc1ncc(C[n+]2ccccc2C)c(N)n1
    -9.2%&-3.0%, -5.3%
CSC(=NS(=O)(=O)c1ccccc1)NNC(=O)c1c(-c2c(Cl)cccc2Cl)noc1C
    -4.7%, 8.5%
Cc1cc(O)c2c(c1)CC1C3CCC4CC(=O)CCC4(C)C3CC(=O)C21C (stereo not given)
    -15.4%, -13.9%
COC(=O)C1CC(c2ccccc2)N(c2ccccc2)O1 (stereo not given)
    -8.1%, i
COc1ccc(NC(=O)C(=O)N2N=C3CCCCC3C2(O)C(F)(F)F)cc1 (stereo not given)
    -6.1%, i
CC[C@H](C)[C@H](NC(N)=O)C(=O)Nc1ccc(NC(C)=O)cc1
    -9.6%, -17.0%
COCCN(CC(=O)Nc1cccc(C)c1C)C(=O)/C=C/c1ccc2c(c1)OCCO2
    0.7%, i
Cc1cc(C(=O)COC(=O)c2cccn2C)c(C)n1Cc1ccco1
    -11.0%, i
CN(c1ccc(OCC(=O)OCC(=O)Nc2cccc([N+](=O)[O-])c2)cc1)S(=O)(=O)c1ccc(F)cc1
    -15.8%, i

3 records picked at random from the list so far, as already listed:
Value order: VACV Venus inh, VACV mCherry inh
CCOC(=O)NC(=S)Nc1cccc(C)n1
    -10.0%, i
COc1ccc(OC)c(NC(=O)Cn2c(C)nc3ccccc3c2=O)c1
    -3.4%, i
COc1cccc(C(c2nnnn2C2CCCCC2)N2CCC3(CC2)C(=O)NCN3c2ccccc2)c1OC (stereo not given)
    -19.7%, -6.9%

(further entries)
Value order: VACV Venus inh, VACV mCherry inh
CCN1C(Br)=CCc2ccccc21
    4.2%, -12.1%
C#CCOCCOCCOCCNc1nc(N2CCN(C(=O)C([C@@H](C)CC)n3cc(C(N)Cc4ccc(O)cc4)nn3)CC2)nc(N2CCN(C(=O)[C@H](CCC(=O)O)n3cc(C(N)[C@H](C)CC)nn3)CC2)n1 (stereo not given in full)
    1.1%, i
O=S(=O)(c1ccccc1)N1CCN(c2ccccc2)CC1
    -14.2%, -4.2%
O=C(COC(=O)[C@H](Cc1ccccc1)NC(=O)c1ccco1)NC(c1ccccc1)c1ccccc1
    -12.8%, -20.9%
CN(C)S(=O)(=O)c1cccc(-c2csc(N/N=C/c3ccco3)n2)c1
    -18.8%, ?
COCCN1C(=O)COc2ccccc2C1C(=O)NCc1ccccc1 (stereo not given)
    14.2%, 36.9%[activator]
C=CCc1cccc(/C=N/NC(=O)CCC(=O)Nc2ccc(F)cc2)c1O
    ?, ?
Cc1cc(=O)oc(C)c1C(=O)OCC(=O)c1ccc(Br)cc1
    -18.4%, /
CCC(CC)C(=O)Nc1nnc(SCC(=O)NC(C)(C)C)s1
    -10.0%, i
CN(CC(=O)Nc1ccc(F)cc1)C(=O)COC(=O)c1nc(Cl)ccc1Cl
    -9.1%, i
C[C@H]1CCC(=O)N(CCSc2ccc(Br)cc2)CC1
    -21.3%&-15.7%, -8.4%
Cc1ccc2nc(C3CCCN3Cc3nc(CCC(C)C)no3)[nH]c2c1 (stereo not given)
    0.2%, i
COC(=O)C1Cc2c([nH]c3ccccc23)C2(CCN(Cc3ccccc3)CC2)N1 (stereo not given)
    -18.9%, ?
c1ccc(SCCOCCN2CCOCC2)cc1
    -11.6%, i
O=c1c2ccccc2oc2cc(NCCCn3ccnc3)ccc12
    ?, -18.2%
CCCCn1c(N)c(N(CC(C)C)C(=O)c2cccc(S(=O)(=O)N3CCCCC3)c2)c(=O)[nH]c1=O
    -15.0%, i
CC(=O)Nc1nnc(CCN(CCc2nnc(NC(C)=O)s2)[N+](=O)[O-])s1
    21.3%, i
CCOc1ccccc1Nc1nnc(SCC(=O)Nc2ccc3[nH]c(=O)[nH]c3c2)s1
    30.1%[activator], i
Cc1cc(C(=O)NCC(=O)OCC(=O)Nc2ccc(OC(F)F)cc2)ccc1[N+](=O)[O-]
    -3.7%, -10.6%
COc1ccc(NC(=O)CCCn2c(=O)c3cccn3c3ccccc32)c(OC)c1
    -8.6%, -4.0%
COc1cc(/C=N/NC(=O)c2nonc2N)cc(OC)c1OC
    0.1%, -8.4%
Cc1cc(Cl)ccc1OCC(=O)N/N=C1\CC2C=CCC12 (stereo not given)
    -12.7%, -5.5%
COc1ccc(CCNC(=O)CCCc2ccccc2)cc1OC
    -5.5%, -9.8%
CN(C)CC1CCC/C(=C\c2ccc(OC(=O)/C=C/c3ccccc3)cc2)C1=O (stereo not given)
    3.3%, -15.3%
O=c1oc2ccccc2c(N2CCC(c3ccccc3)CC2)c1[N+](=O)[O-]
    -2.7%, -7.9%
c1ccc(-c2ccccc2OCCOCCN2CCCCC2)cc1
    -23.3%, -32.7%
CCc1cc(=O)oc2c(C)c(OCC(=O)N3CCCc4ccccc43)ccc12
    -19.0%, -9.2%
COc1ncnc2c1oc1nc(C)c3c(c12)CC(C)(C)OC3
    -7.9%, i
COc1ccc(/C=C2\SC(=O)N(CC(=O)NNC(=O)c3ccccc3O)C2=O)cc1
    -4.4%, -9.9%
O=C(O)c1ccc(S(=O)(=O)c2ccccc2C(=O)O)c([N+](=O)[O-])c1
    1.5%, i
O=C(NC(=S)NCCN1CCOCC1)c1ccc(Cl)cc1
    -13.7%, -9.6%
O=C(O)c1cccc(Nc2ccncc2[N+](=O)[O-])c1
    -8.9%, i
Cc1cccc(CNC(=O)c2cnn(-c3nccc(-c4ccccc4F)n3)c2C2CC2)n1
    6.6%, -8.1%
O=C(CN(CC1CCCO1)C(=O)CNS(=O)(=O)c1ccc(F)cc1)NCC1CCCO1 (stereo not given)
    -8.8%, -7.6%
CCOC(=O)c1[nH]c2ccccc2c1N=CN(CC)CC
    -9.8%, -7.4%
CN(CCOC(=O)c1cccc(Br)c1)C(C)(C)C
    1.8%, /
COCCNCCOc1ccc(C(C)(C)c2ccccc2)cc1
    -7.1%, -19.1%
COc1ccccc1-c1cc(C(=O)NCc2ccccc2)c2c(-c3ccc(C)cc3)[nH]nc2n1
    -10.0%, -12.6%
O=C(Nc1nnc(SCc2ccc(Cl)cc2)s1)c1ccco1
    -9.4%, -12.9%
Cc1nc(CN(C)C(=O)CC2C(=O)NCCN2Cc2ccc(-c3ccccc3)cc2)cs1 (stereo not given)
    -12.1%, -26.4%
N#Cc1c(-c2ccc(C(F)(F)F)cc2)cc(-c2ccccc2)[nH]c1=S
    -12.5%, -24.4%
Cc1cccc(-n2ncc3c2CCCC3NC(=O)CCCN2CCCCC2=O)c1C (stereo not given)
    -15.1%, -14.7%
Cc1ccn2c(=O)cc(COc3ccc(NC(=O)COc4ccc(Cl)cc4)cc3)nc2c1
    -4.2%, -7.4%
O=[N+]([O-])c1ccccc1CN1CCN(c2ncccn2)CC1
    -13.2%, ?
Cc1ccccc1Cn1cc(S(=O)(=O)c2ccc(F)cc2)c(=O)c2cc3c(cc21)OCO3
    0.9%, -0.4%
COc1ccc2[nH]cc(CCNC(=S)NC3CCCC3)c2c1
    -13.0%, -16.4%
COc1ccc(NC(=O)Cn2c(SCc3ccc(C)cc3)nc3cccnc32)cc1OC
    -23.1%, -26.7%
COc1cccc(C(CNc2ccc(S(=O)(=O)N3CCN(C)CC3)cc2[N+](=O)[O-])N(C)C)c1 (stereo not given)
    -13.0%, ?
CCCCNC(=O)c1ccc2c(c1)N=C(CC)c1ccccc1S2
    -27.6%, -3.0%
Cc1ccc(S(=O)(=O)Nc2ccccc2C=NNC(=O)c2ccncc2)cc1
    0.5%, -6.4%
O=C(Nc1ccncc1)C1CCN(S(=O)(=O)c2c(Cl)cccc2Cl)CC1
    -25.5%, -28.3%
Cc1ccc(-n2cc(CN3CCNC(=O)CC3)c(-c3ccc(F)cc3)n2)cc1
    -14.0%, ?
CC(C)(C)CC(C)(C)N=C1Nc2ccc(Cl)cc2NC12C[C@H]1CCC(=O)N3CC[C@@H](C2)[C@@H]13 (stereo not given in full)
    ?, ?
CCOC(=O)/C(C#N)=C\C1=C(N2CCCC2)CC(C)(C)OC1
    -23.8%, /
O=C(O)CC/C(=N\Nc1ccccc1[N+](=O)[O-])c1cccs1
    -11.2%, -14.7%
CCCCCCCCC(=O)N1C(C)CCC1C (stereo not given)
    3.0%, i
CCNC(=O)C1CCCN(C(=O)c2ccc(-c3ccccc3)cc2)CC1 (stereo not given)
    -4.9%, 30.2%[activator]
COc1ccc(-n2nc(C(=O)NCC(=O)N(C)Cc3ccccc3)c3ccccc3c2=O)cc1
    -8.4%, -6.6%
O=C(CSc1nnc(-c2ccccc2)o1)Nn1cnnc1
    -11.5%, -16.2%
CCOC(=O)C1NN=C(C(=O)c2ccccc2)C1c1ccccc1 (stereo not given)
    -25.5%, -13.2%

The list goes on:
Value order: VACV Venus inh, VACV mCherry inh
Cc1cc(C)n(C(C)Sc2ccccc2)n1 (stereo not given)
    -8.8%, i
CC(C)=NNc1nc2c(c(=O)[nH]c(=O)n2C)n1CCc1ccccc1
    3.2%, i
COC(=O)c1ccc2nc(C3CCCCC3)c(Cc3ccc(OC)cc3C)n2c1
    -4.4%, 2.3%
Cc1cnc(NC(=O)c2cncc(Br)c2)s1
    -13.9%, -11.6%
Cc1[nH]c2ccc(C(=O)OCC(=O)NC3(C#N)CCCCC3)cc2c1C
    ?, -26.9%
CCc1ccc(NC(=O)c2cc3sc(Cl)cc3n2C)cc1
    -17.4%, -10.1%
COc1ccccc1C(=O)Nc1ccc(NC(=O)C2CCCCC2)nc1
    -8.2%, 34.4%[activator]
